Menin MLL FP FL – inhibitors of human menin-MLL interaction, wild-type MLL peptide | Fluorescence polarization, fluorescein-MLL peptide displacement from menin | FP activity change, % at 61.4 µM | 290,000 tested, under 10 active; inconclusive = falling polarisation curve, or a change in total fluorescence; inactive = total fluorescence flat and polarisation flat or rising; no compound was filed as active; the % refers to the polarisation; negative = inhibition;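 also: % of control where 0% means no effect; inhibitors lower the polarisation; unlabelled MLL peptide was the positive control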
TRPML1 inh – blocks the human TRPML1 channel; TRPML1-inducible cells, Ca2+ dye fluorescence, FDSS; active compounds read low; inhibition of EC80 agonist-evoked calcium signal; Q9GZU1; activity change, negative = inhibition, % (concentration not given with the values); AID 624415; hit rate 0.02% among 390,000; in the data active means activity change below about -50%; inconclusive means about -30% to -50%; inactive means above about -30%;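 also: stimulus is agonist 54-4 at its EC80 concentration; % is scaled to controls: 0 for no effect and ±100 for the full control effect; the text of the record puts the active cut at -80%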
Target sequence (Q9GZU1 whole entry, looked up): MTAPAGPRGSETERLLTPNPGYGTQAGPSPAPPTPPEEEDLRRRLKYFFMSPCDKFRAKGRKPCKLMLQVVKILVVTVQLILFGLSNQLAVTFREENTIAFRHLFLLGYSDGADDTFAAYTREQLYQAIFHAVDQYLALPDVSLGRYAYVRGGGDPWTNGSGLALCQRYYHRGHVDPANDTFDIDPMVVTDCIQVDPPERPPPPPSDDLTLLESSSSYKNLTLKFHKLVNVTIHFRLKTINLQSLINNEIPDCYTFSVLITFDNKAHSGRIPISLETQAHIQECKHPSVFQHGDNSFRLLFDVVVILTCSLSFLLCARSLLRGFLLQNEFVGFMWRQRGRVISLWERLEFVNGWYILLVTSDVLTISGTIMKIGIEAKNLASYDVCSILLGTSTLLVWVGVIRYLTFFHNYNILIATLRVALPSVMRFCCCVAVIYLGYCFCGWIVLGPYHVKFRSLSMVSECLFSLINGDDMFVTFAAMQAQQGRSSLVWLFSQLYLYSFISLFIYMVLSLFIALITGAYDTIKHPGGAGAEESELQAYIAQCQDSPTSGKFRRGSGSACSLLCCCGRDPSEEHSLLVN
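TRPML1-DL cells, Tet-induced overnight (~16 h, 37 °C) at 1,500 cells/well, were loaded with Ca8 no-wash dye plus quencher for 45-90 min at room temperature. Compounds were pinned during FDSS kinetic reading; agonist 54-4 at EC80 (4 uM final) then added.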
ClpP mod – qHTS Assay for Activators of ClpP; ATP-dependent Clp protease proteolytic subunit (Bacillus subtilis (strain 168)), P80244; purified B. subtilis ClpP, FRET peptide cleavage, 20 min; Potency, µM (titrated, usually from 57.5 µM), inactives show at the highest dose activity change, negative = active; hit rate 1.9% among 340,000; AID 651965, 2013; active = well fitted falling curve with a large enough effect; inconclusive = small, poorly fitted or top-dose-only effect; inactive = no such curve, though single readings can be large or run the other way; also: potency is read from the fitted curve at half-maximal effect; the source files actives as falling curves though it sought activators and does not explain the sign; nearly all actives have a fitted effect of over 65% in size; many hits overshoot -100%
Target sequence (P80244 whole entry, looked up): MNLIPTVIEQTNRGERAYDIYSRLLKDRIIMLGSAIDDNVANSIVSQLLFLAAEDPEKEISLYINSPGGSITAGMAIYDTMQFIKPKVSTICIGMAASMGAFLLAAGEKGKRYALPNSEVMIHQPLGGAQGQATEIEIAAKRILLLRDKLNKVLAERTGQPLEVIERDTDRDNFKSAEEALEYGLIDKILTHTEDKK
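Buffer: 100 mM Tris/HCl pH8, 100 mM KCl, 0.05% low protease BSA, 2.5% glycerol, 0.01% Tween-20. ClpP 10 microg/mL final; 20 min RT; delta FRET normalized to ADEP and DMSO controls.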
gsp antag – gsp mutant antagonism; gsp-mutant cells, cAMP HTRF, 30 min; control for the full effect not named in the record; hit rate 0.4% among 340,000; Potency, µM (highest dose often 76.9 µM), for inactives: at the highest dose activity change, negative = inhibition, actives largely listed as inhibitors; active = falling curve of any shape with a large fitted effect; inconclusive = falling curve, mostly with a smaller effect; inactive = flat or rising curve; cell line not stated here;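 also: intracellular cAMP measured with PDE inhibitor Ro 20-1724 present during compound exposure; potency is read from the fitted curve at half-maximal effect; % is scaled to controls: 0 for no effect and ±100 for the full control effect; nearly all actives have a fitted effect of over 65% in size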
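G418-selected cells were plated in DMEM/10% FBS for 16-24 h at 37C, then treated with compounds plus the PDE inhibitor […] (300 uM solution added) for 30 min at 37C. Intracellular cAMP was measured by HTRF after 30 min lysis at room temperature.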
Sfp inh – inhibitors of Bacillus subtilis Sfp phosphopantetheinyl transferase. Q9F4F7. Biochemical Sfp PPTase activity, qHTS. Potency, µM, inactives show max response, negative = inhibition, usual class: inhibitors. hit rate 3.5% among 310,000; active = well fitted inhibition curve with a large enough effect; inconclusive = small, poorly fitted or top-dose-only effect, or another doubt; inactive = no such curve, though single readings can be large or run the other way;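 also: the enzyme is Sfp with the accession as filed and its product quenches rhodamine fluorescence; potency is read from the fitted curve at half-maximal effect; 0% = enzyme reaction without inhibitor and -100% = no enzyme wells; top concentration of the series not given in the record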
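Buffer: 50 mM Hepes-Na pH 7.6, 10 mM MgCl2, 0.01% Nonidet P-40, 0.01% BSA. Enzyme 15 nM, pre-exposed to compound 15 min; substrates then added and fluorescence change tracked over 30 min.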
gsp ag – activates gsp, the McCune-Albright syndrome mutation; gsp mutant cells, cAMP HTRF, 30 min; control for the full effect not named in the record; Potency, µM (series often up to 76.9 µM), without a hit: top-dose activation (cAMP increase), usual class: activators; hit rate 0.13% among 340,000; AID 624287; active = well fitted activation curve with a large enough effect; inconclusive = small, poorly fitted or top-dose-only effect, or another doubt; inactive = no such curve, though single readings can be large or run the other way; cell line not stated here;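 also: phosphodiesterase inhibitor Ro 20-1724 added with compounds to block cAMP breakdown; potency is read from the fitted curve at half-maximal effect; nearly all actives have a fitted effect of over 60% in size; about a fifth of the inactives were tested at one dose only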
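Cells stably selected in G418 were plated at 2000/well, grown 16-24 hr, then given compounds in DMSO with the PDE inhibitor […] (300 uM solution added) for 30 min at 37C; cAMP was read by HTRF.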
TRPV1 potentiator – potentiators of human vanilloid receptor 1 (TRPV1). TRPV1-expressing cells, Fluo-8 calcium influx, capsaicin EC20 potentiation; host cell line not named in the record; control for the full effect not named in the record. hit rate 0.02% among 320,000. potentiation, % at 8.33 µM. Q8NER1; active means potentiation above 80%; inconclusive means 30% to 80%; inactive means below 30%; also: 0% is about no effect
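Fluo-8 calcium influx in TRPV1-expressing cells, kinetic read (ex 480/em 520 nm). Compound added and read 3 min for agonist activity, followed by capsaicin at EC20 final and 2 min further read for enhancement.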
Starred values were filed as active, the others as inactive; ? = inconclusive; / = no result given; & = joins results of further samples; ! = repeats disagree; [ ] = dose if it differs, or a comment.

SMILES | Menin MLL FP FL | TRPML1 inh | ClpP mod | gsp antag | Sfp inh | gsp ag | TRPV1 potentiator
NNC(=O)c1ccc(CSc2n[nH]c(=O)[nH]c2=O)cc1 | 3.3 | -1 | / | 9% | 6% | -37%[15.4 µM] | 1
Cn1c(Nc2cccc(Cl)c2)nc2ccccc21 | -17 | 2 | / | -25% | 5% | -11% | 6
COc1cc(C2CC(c3cccs3)=NN2C(=O)CCl)ccc1OC(F)F (stereo not given) | -0.2 | 4 | / | -7% | 3% | 9%[15.4 µM] | 13
C[C@H](CO)N1C[C@H](C)[C@@H](CN(C)Cc2ccc(C(=O)O)cc2)Oc2c(NS(=O)(=O)c3ccccc3)cccc2C1=O | / | 0 | -1.0% | 6% | / | / | /
CN(C)S(=O)(=O)N1CCN(C(=O)N2CCOCC2)CC1 | 2.5 | -11 | 0.3% | -3% | 9% | 7% | 0
CCN1CCN(c2ccc(S(=O)(=O)N3CCCCC3)cc2NC(=O)c2cccc(C(F)(F)F)c2)CC1 | / | 10 | -2.0% | -5% | / | 2%[15.4 µM] | -2
CCC1(c2ccccc2)NC(=O)N(CC(=O)Nc2cc(S(=O)(=O)N3CCCCC3)ccc2OC(C)C)C1=O (stereo not given) | / | -11 | / | -17% | / | -2%[15.4 µM] | 7
CCn1cc(CNC(=O)c2ccc3nc(Cc4ccccc4F)oc3c2)cn1 | 0.9 | 23 | 0.0% | -11% | 21% | ? | -3
COc1cc2[nH]cc(C(=O)NCc3ccccc3)c(=O)c2cc1OC | -1.0 | / | -13% | -3% | 13% | -2% | 14
c1ccc(Cc2noc(CN3CCN(CCOc4ccccc4)CC3)n2)cc1 | 0.7 | -9 | -1.1% | 4% | 0% | ? | -13
O=C(O)c1cc(-c2ccco2)nc2ccc(Br)cc12 | ? | -9&-7 | -5.8%&1.1% | 10%&13% | 13µM*! | ? | ?
COc1ccc(/C(N)=N/OC(=O)c2ccc([N+](=O)[O-])c(C)c2)cc1OC | -2.4 | -3 | 1.5% | 7% | 4% | 1% | 13
O=C(N/N=C/c1cc2c3c(c1O)CCCN3CCC2)c1ccccc1O | / | -15 | / | ? | -16% | -6%[15.4 µM] | -6
O=C(COC(=O)c1c(F)cccc1F)NCCNC(=O)COC(=O)c1c(F)cccc1F | -2.4 | 9 | ? | 11% | -6% | -3%[15.4 µM] | 1
Fc1ccc(CN2CCN(c3ncnc4scc(-c5ccccc5)c34)CC2)cc1 | -2.5 | 34 | 0.6% | -35% | -26% | ? | 13
CCCNC(=S)N(Cc1cc2cc(C)ccc2n2nnnc12)CC(C)(C)CN(C)C | 2.1 | 4 | -0.3% | 2% | 13% | 18%[15.4 µM] | -20
COc1ccc(OC)c(C(=O)c2oc3ccccc3c2NC(C)=O)c1 | -3.0 | -23 | 0.6% | 7% | -22% | 5% | -11
O=C(O)c1ccc(Cl)c(NCc2cccnc2)c1 | -0.9 | 0 | / | -12% | 6% | 21% | -8
CCN(CC)C(=O)[C@H]1C[C@H](CC(=O)NC(C)(C)C)C(=O)N2CCc3c([nH]c4cc(-c5ccco5)ccc34)[C@]12C | / | -19 | 3.6% | -15% | / | / | /
Cc1cc(NS(=O)(=O)c2ccc(NC(=O)CCCOc3ccccc3C)cc2)nc(C)n1 | 6.7 | -19 | 0.3% | -3% | 1% | -3%[15.4 µM] | 5
Cc1onc(-c2ccccc2)c1C(=O)NCCSCc1ccco1 | / | -1 | -3.5% | 2% | / | 10%[15.4 µM] | /
O=C(Nc1nc2cc(Cl)ccc2s1)C1CCCN(S(=O)(=O)c2cccc3cccnc23)C1 (stereo not given) | 0.1 | -5 | -8.9% | ? | 7% | 17% | ?
CC(C)C(=O)Nc1ccc(C(=O)c2ccccc2)cc1 | 6.7 | 16 | 0.4% | -23% | 10% | -19% | -12
Cc1c(NC(=O)c2cc3nc(-c4ccc(Br)cc4)cc(C(F)(F)F)n3n2)c(=O)n(-c2ccccc2)n1C | 1.9 | 1 | -1.7% | 11% | -4% | 1% | ?
CCN(CC)c1ccc(/C=N/Nc2nc(C)cc(=O)[nH]2)c(O)c1 | / | 6 | -11% | -6% | 4% | 7% | -11

(next part)
SMILES | Menin MLL FP FL | TRPML1 inh | ClpP mod | gsp antag | Sfp inh | gsp ag | TRPV1 potentiator
Nc1c(Cl)cc(-c2csc(NCCc3nc4cc(Cl)c(Cl)cc4n3CCCO)n2)cc1Cl | 7.2 | -5 | 3.5% | -20% | 11% | -31%[inhibitor] | 11
C=CCn1c(CCNC(=O)C(C)(C)C)nc2ccccc21 | -0.2 | -7 | 0.2% | -6% | 4% | -39%[inhibitor] | 1
CCCNC(=O)CN1C(=O)NC(CCc2ccccc2)C1=O (stereo not given) | -3.4 | 1 | / | 3% | -4% | 12%[15.4 µM] | -5
CCc1cc(=O)oc2cc(C)c(CN3CCCC3)c(O)c12 | 8.3 | 17 | -3.3% | -7% | 89µM* | ? | 8
Cc1nc(NC(=O)c2ccc(OCC(C)C)cc2)sc1Cc1ccc2c(c1)OCO2 | 8.7 | -3 | -12% | 3% | -1% | -70%[inhibitor] | -3
Cc1ccc(NCc2ccc(O)c3ncccc23)cc1 | -2.2 | 3 | / | 2% | 3.5µM* | 8% | 5
CCN1CCN(C(=O)C2=CC(c3ccc(OC)cc3)=NS(=O)(=O)N2C)CC1 | -0.3 | -7 | -3.8% | 0% | -2% | -14% | 13
Cc1ccc(Cl)cc1N1CCN(S(=O)(=O)c2cc3c(cc2C)NC(=O)CO3)CC1 | 5.9 | 9 | -2.3% | -12% | 2% | -2% | -20
CN(C)CCN1CC(C(=O)O)CC1=O (stereo not given) | -0.6 | 0 | -0.3% | 6% | 1% | 0% | -8
Cn1cncc1C#Cc1c(-c2ccsc2)sc2ccccc12 | / | 1 | 4.3% | ? | / | / | /
COc1ccc(OC)c(NC(=O)C(C)Oc2ccc(Br)cc2)c1 (stereo not given) | -0.7 | 3 | / | -38% | -1% | 4%[15.4 µM] | 21
CCn1c(C)nc2cc(C(=O)NNC(=O)c3ccc(C)cc3)ccc21 | / | 1 | -19% | -8% | / | 7% | 20
C/C(=N\NC(=O)c1cc(O)cc(O)c1)c1ccc(NC(=O)Cc2ccccc2)cc1 | / | 1 | -4.5% | 0% | 4% | -2%[15.4 µM] | 9
CN(C)/C=C/C(=O)c1ccc(S(=O)c2ccccc2)cc1 (stereo not given) | 4.9 | -9 | / | -11% | -10% | -26% | 10
O=C(c1ccc(Cl)c(S(=O)(=O)N2CCOCC2)c1)N1CCOCC1 | -0.7 | 11 | 32µM* | -10% | 12% | -4%[15.4 µM] | -8
CCOc1ncccc1C(=O)OCC(=O)N1CCC(C)CC1 | / | -14 | -2.2% | 11% | / | -1% | /
Nc1cccc2c1C(=O)N(C(=O)c1ccc(Cl)c(S(=O)(=O)N3CCCCCC3)c1)C2=O | 3.0 | 67 | 3.8% | -23% | 6% | 27% | -7
CCOC(=O)C(c1ccccc1)C(Nc1ccc(Cl)c(Cl)c1)c1ccccn1 (stereo not given) | 4.5 | 17 | / | -7% | 3% | 2% | -5
CCOc1ccc(NC(=O)CCn2c(=O)[nH]c3ccsc3c2=O)cc1 | -2.1 | 0 | 1.2% | 6% | -20% | -53% | 8
O=c1cc[nH]c2c(Cl)cccc12 | -2.3 | -9 | 0.2% | 6% | 8% | 30% | 5
CC(=O)c1ccc(N2CCCCCC2)c(F)c1 | 1.6 | 15 | -6.0% | 1% | 3% | 0% | -20
CCn1cc(C(=O)O)c(=O)c2cc(F)c(N3CCNCC3)cc21 | 0.0 | / | / | / | -5%&-13%&-10% | / | 19
Cc1ccc(C)c(N2CCN(C(=O)c3ccc4c(c3)c(C)c(C)n4C)CC2)c1 | 0.7 | 30&-16 | -18%&-7.1% | ? | -16% | 9% | 5
COc1ccc(NC(=O)Nc2nc3c(s2)CCCC3)cc1 | 1.4 | 40 | 1.8% | -8% | -6% | -4% | 0
CN(C)c1cccc2cccc(N(C)C)c12 | 0.5 | 2 | / | 3% | -4% | ? | /

Further structures follow:
SMILES | Menin MLL FP FL | TRPML1 inh | ClpP mod | gsp antag | Sfp inh | gsp ag | TRPV1 potentiator
COc1ccc2c(c1OC)CN1CCc3cc4c(cc3[C@@H]1[C@@H]2O)OCO4 | -1.1 | -15 | -3.8% | 6% | 9% | -12% | 12
COCC(C)n1c(C)cc(C(=O)COC(=O)c2cc(=O)[nH]c3ccccc23)c1C (stereo not given) | / | 8 | -19% | -4% | / | 6% | /
Cc1ccc(/C=N/NC(=O)c2ccc(-n3cnnn3)cc2)cc1 | / | 4 | -5.1% | 3% | / | -16% | -10
CCOC(=O)c1sc(-c2ccc(OC)cc2)cc1NC(C)=O | -1.6 | 11 | 3.5% | 4% | ? | ? | -7
COc1ccc(OC)c(NC(=O)CSc2ncccc2C(=O)O)c1 | 0.8 | 0 | -1.8% | 5% | -12% | 4% | -2
O=S(=O)(Nc1ccc(Nc2ccccc2)cc1)c1ccc(F)cc1 | / | -8 | / | -6% | / | 0% | /
Cc1cc(=O)oc2cc(NC(=O)c3ccc(OC(F)F)cc3)ccc12 | 4.4 | 4 | / | 7% | -10% | -4%[15.4 µM] | -2
O=C(NCCCn1ccnc1)/C(=C/c1ccco1)NC(=O)c1cccs1 | 3.1 | -4 | / | 9% | 3% | 14%[15.4 µM] | 6
CCC[C@@H](CN1CCC[C@H]1CN1C(N)=NC[C@@H]1Cc1ccccc1)N1C[C@@H]([C@H](C)CC)N(CCCC2CCCC2)C1=N | / | 7 | -1.4% | 2% | / | / | /
CCNC(=O)C(=O)NCC1CCCN1S(=O)(=O)c1cccs1 (stereo not given) | / | -1 | -24% | 9% | / | 5% | -3
CC(=O)Nc1ccc2c(COC(=O)CC3Sc4ccccc4NC3=O)cc(=O)oc2c1 (stereo not given) | 14 | -11 | / | -8% | -2% | ? | 3
CC1CCN(CC(=O)Nc2ccc(C(=O)N3CCCCC3)cc2)CC1 | 1.3 | -4 | 1.5% | -1% | -13% | -66%[15.4 µM] | 4
NS(=O)(=O)c1ccc(N=Nc2ccc(O)c3ncccc23)cc1 | ? | 1 | 0.9% | ? | -21% | -56%[inhibitor] | -6
CC(=O)c1cc2c(cc1NC(=O)Nc1cccc(Cl)c1)OCCO2 | 1.7 | 29 | -22% | 5% | -5% | 22% | 22
CCCCn1c(N)c(N(CC(C)C)C(=O)CSc2nnc(C)n2-c2ccccc2)c(=O)[nH]c1=O | / | 3 | 2.2% | 5% | / | ? | /

Assay outcomes (PubChem BioAssay)
